# High-throughput results deposited in PubChem BioAssay by several laboratories.
# Vif TR-FRET – inhibitors of Vif binding to APOBEC3G peptide, primary screen, biochemical, TR-FRET, GST-Vif 1-94, biotin-A3G peptide, dose response retest (AID 1117319) | 0.57% of 260,000 active | inhibition, %; hits with a dose series show IC50 in µM | TR-FRET GST-Vif / biotin-A3G peptide binding; higher % means a stronger effect; test concentration not given here; strong numbers were not always called active;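 active = above the screen mean plus three standard deviations and confirmed in dose response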;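 note: Vif residues 1-94 fused to GST binding biotinylated APOBEC3G peptide 110-148; 0% = full assay without inhibitor and 100% = GST in place of GST-Vif; retest series ran down from 100 µM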
# UCH37 DUB inh – inhibitors of human deubiquitinating enzyme UCH37; 0.33% of 330,000 active; purified proteasome/UCH37, Ub-AMC cleavage fluorescence; AID 588478; inhibition, % (test concentration not listed);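 active = mean of two replicates above 20%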;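 note: 0% = compound-free wells with enzyme and 100% = wells lacking proteasome; stock transfer was 100 nL into about 20 µL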
#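 assay system = human UCH37 enzyme supplied as purified proteasome complex | amount = proteasome at 0.15 nM in the dispensed enzyme solution | schedule = 30 min compound-proteasome preincubation then 25 min substrate reaction, room temperature | measured by = fluorescence, ex 355 nm, em 460 nm | benchmarks = no-proteasome wells (full inhibition) and compound-free wells (no inhibition)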
# LANA-H2B inh – blocks KSHV LANA binding to histone H2A/H2B. 0.6% of 320,000 active. cell-free LANA-H2A/H2B peptide, fluorescence polarization. Q9QR71. inhibition, % (concentration not given with the values); in the data active = inhibition mostly above about 10%, no sharp cut-off; inactive = mostly below about 6.7%;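 note: stock transfer was 7.5 nL into about 10 µL; 0% = median of vehicle wells and 100% = median of positive control wells; one replicate is shown; the record names a cut of 25% in any replicate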
# HNF4A DNA FP – change in binding of human HNF4 alpha to DNA | HNF4a-FITC DNA binding, fluorescence polarization, 1 h | activity change, % at 10 µM | 0.3% of 360,000 active; in the data active = activity change above about 30%, passing the limit was not always enough;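 note: controls were the assay level and a saturating level of protein; the project sought stronger binding though the title names inhibitors; some compounds called inactive have numbers as strong as hits; positive values seem to mean higher polarization but the record does not say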
# Target sequence (P41235 whole entry, looked up): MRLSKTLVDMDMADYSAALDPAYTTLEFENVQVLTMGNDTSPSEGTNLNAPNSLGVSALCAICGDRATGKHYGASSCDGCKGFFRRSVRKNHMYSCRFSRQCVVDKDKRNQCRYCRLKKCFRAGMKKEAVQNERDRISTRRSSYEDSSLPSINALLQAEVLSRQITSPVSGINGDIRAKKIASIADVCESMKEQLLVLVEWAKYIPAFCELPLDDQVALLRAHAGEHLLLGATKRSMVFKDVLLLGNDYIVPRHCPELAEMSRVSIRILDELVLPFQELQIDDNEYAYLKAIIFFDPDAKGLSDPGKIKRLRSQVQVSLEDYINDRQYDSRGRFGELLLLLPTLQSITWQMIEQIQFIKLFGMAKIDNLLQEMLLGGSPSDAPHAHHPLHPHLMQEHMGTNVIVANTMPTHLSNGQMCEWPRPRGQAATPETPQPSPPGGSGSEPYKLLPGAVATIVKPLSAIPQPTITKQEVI
# Beta2AR agonist – human beta-2 adrenergic receptor agonism by FAP. 0.43% of 340,000 active. response, % (concentration not given with the values). Am2.2-beta2AR cells, FAP receptor internalization, flow cytometry; reference of the scale not given here;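 active = response above a set limit, near 3 SD of response in nonfluorescent compounds, cut at about 42% in these data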;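 note: stock transfer was 100 nL into about 11 µL; a reference agonist was the positive control; negative values mostly stem from fluorescent compounds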
# Target sequence (P07550 whole entry, looked up): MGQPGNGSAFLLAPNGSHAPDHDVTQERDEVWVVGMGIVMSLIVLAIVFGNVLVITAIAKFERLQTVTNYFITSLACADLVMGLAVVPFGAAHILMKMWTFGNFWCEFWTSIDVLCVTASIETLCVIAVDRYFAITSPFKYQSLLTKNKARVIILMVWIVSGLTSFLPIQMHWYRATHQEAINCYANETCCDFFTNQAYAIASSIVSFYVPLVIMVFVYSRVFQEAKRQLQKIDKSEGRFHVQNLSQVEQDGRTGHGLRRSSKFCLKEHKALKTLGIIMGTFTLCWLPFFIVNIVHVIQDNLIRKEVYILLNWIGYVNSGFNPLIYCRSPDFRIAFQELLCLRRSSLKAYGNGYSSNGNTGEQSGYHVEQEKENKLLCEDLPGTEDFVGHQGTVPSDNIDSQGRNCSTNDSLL
# A1 inh – inhibitors of the anti-apoptotic protein A1, read as caspase activation; MEF A1-2A-BIM cells, Caspase-Glo 3/7 luminescence, 3 h; percent of clofoctol response, vehicle zero; 0.066% of 330,000 active; caspase activation, % (concentration not given with the values);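 active = over half of replicate activation scores above 10%, or exactly half above 10 with the replicate mean above 10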;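 note: wells of about 30 µL received 50 nL stock; many hits fall short of the cut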
# Ecoli growth – inhibitors of Escherichia coli growth; OD600, 23 h; active compounds read low; OD600 absorbance (concentration not given with the values); 0.21% of 330,000 active; AID 1053175;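 active = OD600 absorbance below the run mean of sample wells minus 3.6 SD, in any replicate, cut at about 0.56 in these data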;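 note: stock transfer was 300 nL into about 60 µL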
# Active calls of the source: *; . = not tested or not shown.
SMILES,Vif TR-FRET,UCH37 DUB inh,LANA-H2B inh,HNF4A DNA FP,Beta2AR agonist,A1 inh,Ecoli growth
CCCOc1ccc(/C=N/NC(=O)CSc2ccccn2)cc1OC,.,.,12*,1.8,-6,-0.6,.
Cc1cc(C)nc(N(C#N)Cc2ccc(Br)cc2)n1,4%,1.6,-3.0,-5.2,-3,0.1,0.67
Cc1ccc(NC(=O)CSCC(=O)N(C)CC(=O)Nc2cccc(F)c2)cc1,5%,3.5,0.5,1.8,2,0.6,0.68
CCOC(=O)C1=C(C)N(C)C(=S)NC1c1ccccc1 (stereo not given),-1%,1.2,-0.9,-0.9,-22,0.5,0.74
CCN(CC)S(=O)(=O)c1ccc(NC(=O)COc2c(OC)cccc2OC)cc1,0%,1.6,-0.4,2.2,4,-0.2,0.72
COc1cccc(C(=O)C(C#N)=C(SC)SC)c1,-1%,5.3,-2.2,-1.6,21,3.1,0.65
Cc1ccoc1C(=O)N1CCCC(CO)(Cc2ccc(F)cc2)C1 (stereo not given),.,2.7,-9.0,0.4,0,0.2,0.72
NS(=O)(=O)c1ccc(NC(=S)NC(=O)c2ccc(Br)o2)cc1,-8%,.,5.9,4.9,-11,0.6,.
O=C(C=C1NCCN1)c1ccccc1,.,7.3,1.9,0.1,-5,-1.1,0.62
O=C(CCCCCCN1C(=O)c2ccccc2C1=O)NC1CCCCC1,.,4.8,-2.0,0.8,5,-1.0,0.71
c1cncc(-c2nnc(-c3cccs3)o2)c1,-9%,-21,1.8,0.2,-8,-2.4,0.67
CCCCNC(=O)C(=O)NCCCn1ccnc1,-3%,4.0,1.3,-1.2,2,0.6,0.71
O=C(OCc1nc2ccccc2[nH]1)C1CCCCC1,.,0.6,0.7,2.4,-4,0.2,0.66
CCOC(Cn1c(SCC(=O)Nc2cc(C)on2)nc2ccccc2c1=O)OCC,.,1.2,4.2,1.9,-3,-0.7,0.7
CC(C)C(C)NC(=O)COc1ncnc2sccc12 (stereo not given),.,-0.1,-0.1,3.5,-4,-0.2,0.63
CC1CN(C)C(C)c2c1oc1ccc([N+](=O)[O-])cc21 (stereo not given),-5%,0.2,3.9,0.2,-3,-0.1,0.68
Cc1cc(C)cc(SCc2noc(C(=O)NCCCN3CCOCC3)c2C(=O)NCCCN2CCOCC2)c1,-6%,1.3,1.0,2.1,-6,0.1,0.71
O=[N+]([O-])c1ccccc1CN1CCN(c2ncccn2)CC1,.,6.6,0.7,1.3,0,-0.5,0.7
COc1ccc(OC)c(CNC(=O)CCc2nc(-c3cccs3)no2)c1,-8%,5.2,-0.8,-1.9,-1,-0.3,0.74
O=C(N/N=C\c1cc([N+](=O)[O-])ccc1N1CCCC1)c1ccccn1,2%,.,0.8,-0.8,12,3.0,.
COc1ccc(NC(=O)c2cc(S(=O)(=O)N(Cc3ccccc3)c3ccccc3)ccc2Cl)cn1,-10%,2.2,-4.2,6.8,-16,0.8,0.68
CCN(CC)CCNC(=O)Cn1cnc2sc(C)c(S(=O)(=O)N3CCN(c4ccccc4OC)CC3)c2c1=O,.,3.7,0.2,1.2,8,0.3,0.65
Cc1nn(C)c(Oc2cccc(C(F)(F)F)c2)c1C=O,25%,-6.4,4.9,0.3,-7,1.4,0.66
O=C(CCNS(=O)(=O)c1ccc(Br)s1)N1CCCCC1,2%,1.1,1.1,0.9,2,0.5,0.78
COc1cccc(OCC(O)CN2CCN(c3ncccn3)CC2)c1 (stereo not given),-7%,2.5,-3.0,-1.1,-5,0.6,0.62
CC(c1ccccc1)C1C(C#N)=C(N)SC(N)=C1C#N (stereo not given),6%,2.1,3.3,-0.1,6,0.3,0.73
CCN1C(=O)S/C(=C\c2ccc(N3CCOCC3)cc2C)C1=O,15%,4.2,3.5,27,-3,-1.2,0.72
O=C(Nc1ccc(N2C(=O)CCC2=O)cc1Cl)c1cccs1,.,4.2,1.5,-2.6,-11,-0.1,0.7
COc1ccc(Cl)cc1NC(=O)CN(C)CC(=O)NC(C)c1ccccc1 (stereo not given),0%,1.9,0.0,-0.9,-2,0.7,0.65
O=C(c1cccs1)N1CCN(c2nc3c(F)cc(F)cc3s2)CC1,.,-0.6,-3.3,-3.0,-2,1.0,0.7

# 7 compounds picked at random from those above, as already listed:
SMILES,Vif TR-FRET,UCH37 DUB inh,LANA-H2B inh,HNF4A DNA FP,Beta2AR agonist,A1 inh,Ecoli growth
Cc1nn(C)c(Oc2cccc(C(F)(F)F)c2)c1C=O,25%,-6.4,4.9,0.3,-7,1.4,0.66
CCN(CC)CCNC(=O)Cn1cnc2sc(C)c(S(=O)(=O)N3CCN(c4ccccc4OC)CC3)c2c1=O,.,3.7,0.2,1.2,8,0.3,0.65
Cc1cc(C)cc(SCc2noc(C(=O)NCCCN3CCOCC3)c2C(=O)NCCCN2CCOCC2)c1,-6%,1.3,1.0,2.1,-6,0.1,0.71
O=C(c1cccs1)N1CCN(c2nc3c(F)cc(F)cc3s2)CC1,.,-0.6,-3.3,-3.0,-2,1.0,0.7
CC(c1ccccc1)C1C(C#N)=C(N)SC(N)=C1C#N (stereo not given),6%,2.1,3.3,-0.1,6,0.3,0.73
O=[N+]([O-])c1ccccc1CN1CCN(c2ncccn2)CC1,.,6.6,0.7,1.3,0,-0.5,0.7
O=C(Nc1ccc(N2C(=O)CCC2=O)cc1Cl)c1cccs1,.,4.2,1.5,-2.6,-11,-0.1,0.7

# Going on with the list.
SMILES,Vif TR-FRET,UCH37 DUB inh,LANA-H2B inh,HNF4A DNA FP,Beta2AR agonist,A1 inh,Ecoli growth
O=c1[nH]c(/C=C/c2ccccc2Cl)c([N+](=O)[O-])c(=O)[nH]1,.,14,5.9,-2.9,0,1.6,0.65
O=C(CCN1C(=O)/C(=C/C=C/c2ccccc2)SC1=S)Nc1ccccn1,11%,14,-1.2,18,4,-0.5,0.71
CCN(CC)S(=O)(=O)c1ccc(NC(=O)c2cnc(C)cn2)cc1,-4%,0.8,3.1,1.6,5,-0.2,0.67
Cc1cc(C(=O)N2CCCC(N3CCN(c4cccc(C(F)(F)F)c4)CC3)C2)c(C)o1 (stereo not given),.,3.5,-4.0,2.0,9,2.0,0.71
O=C(CCn1c(=S)oc2ccccc21)Nc1cc([N+](=O)[O-])ccc1F,.,0.0,0.6,1.9,8,0.6,0.62
O=c1c(C(c2ccccc2)c2c(O)nc3n(c2=O)CCS3)c(O)nc2n1CCS2,2%,-0.2,-1.7,-0.7,-2,-0.2,0.68
COc1ccc(-n2nc(C(=O)NCC(=O)N3CCN(c4ccccc4F)CC3)c3ccccc3c2=O)cc1OC,.,-167,1.3,0.1,26,-0.1,0.71
N/C(Cc1cccs1)=N\OC(=O)COc1ccccc1Cl,1%,5.3,0.0,0.9,5,-0.2,0.74
O=C(NCCc1ccc(Cl)cc1)c1cccnc1,0%,3.6,2.7,2.2,-3,-0.3,0.67
CCN(CC)C(=N)N1c2ccccc2CCC1C (stereo not given),2%,-0.1,3.5,3.3,7,-0.6,0.71
CCCc1nnc(NC(=O)Cn2cnc3ccccc3c2=O)s1,0%,2.1,2.8,-0.5,2,-1.0,0.69
Cc1cc(C)cc(N(CC(=O)N2CCC(C)CC2)S(C)(=O)=O)c1,1%,1.5,-1.1,1.4,3,0.4,0.7
Cc1cnc(C(=O)OCC(=O)Nc2ccc(C)c(S(=O)(=O)N3CCOCC3)c2)cn1,-2%,2.7,2.1,5.8,-10,0.4,0.69
O=C(NCc1ccccc1)N1CCn2c(nc3ccccc32)C1,-5%,-18,-2.6,0.0,-9,-0.4,0.61
COc1cccc(CC2(CO)CCCN(C(=O)c3cc[n+]([O-])cc3)C2)c1 (stereo not given),-3%,-0.7,3.4,2.8,-1,2.4,0.69
CCC(=O)c1ccc(N2CCN(C(=O)Cc3ccccc3)CC2)c(F)c1,8%,3.7,-1.0,3.4,-1,3.6,0.71
CCCCCCN1C=CC=C/C1=C\C=C(C#N)C#N,17%,12,1.5,22,1,0.1,0.66
O=C(N/N=C\c1ccc2c(c1)OCO2)c1cncc(Br)c1,-6%,.,2.4,0.3,-10,.,.
Cc1ccccc1OCCC(=O)Nc1ccc(S(=O)(=O)N(C)C2CCN(C)CC2)cc1,-11%,-1.2,1.9,2.9,13,-0.4,0.65
COc1ccc(CNC(=O)CCc2nc(-c3ccccc3F)no2)c(OC)c1,12%,-1.8,-6.1,0.7,-3,0.8,0.79
CN(C)c1ccc(/C=C/c2nc3ccccc3c(=O)[nH]2)cc1,-4%,3.3,-5.0,67*,11,-8.9,0.71
CCN(CC)CCCN1C(=O)C2C(C(=O)Nc3ccc(C(C)C)cc3)C3C=CC2(O3)C1C(=O)NC1CCCCC1 (stereo not given),.,3.8,-1.9,3.4,-2,2.3,0.66
Cc1ccc(-n2c(Cc3cccs3)nnc2SCC(=O)OC(C)C)cc1,2%,1.1,5.8,6.4,12,0.1,0.66
CCOC(=O)C(C)Sc1nc2c(cnn2-c2ccc(F)cc2)c(=O)[nH]1 (stereo not given),11%,2.2,0.7,-2.8,14,0.3,0.69
CCS(=O)(=O)N1CCC(C(=O)Nc2ccccc2OC)CC1,.,4.0,9.9,0.9,-1,0.2,0.67
CCOc1ccc(C2NC(=O)NC(C)=C2[N+](=O)[O-])cc1OC (stereo not given),-9%,5.9,3.6,1.6,2,-0.3,0.69
CCCN1CCN(C(=O)Cn2ncc3c([nH]c4ccc(C)cc43)c2=O)CC1,.,-22,1.1,-0.7,7,0.5,0.67
COc1ccc(OC)c(N(CC(=O)N2CCCC2)S(=O)(=O)c2ccc(OC)c(OC)c2)c1,9%,3.0,-3.8,1.1,5,-0.5,0.72
C#CCN1C=CC(=O)[C@@H](OC(=O)Nc2ccc(Cl)cc2)[C@H]1c1ccccc1Br,-1%,.,.,-3.9,-10,.,.
CC(Sc1nccn1C)C(=O)c1ccc(Br)cc1 (stereo not given),.,1.9,1.3,-1.3,4,-0.3,0.69
O=C(C1CCC1)N1CCN(S(=O)(=O)c2ccccc2)CC1,.,1.6,-0.2,-2.1,4,-0.1,0.59
Cc1ccc(C(=O)N(c2ccccn2)C(C)c2ccco2)cc1 (stereo not given),2%,0.3,-4.0,-0.8,-5,-1.4,0.76
COc1cc(/C=C/c2ccc3cccc(O)c3n2)cc(Cl)c1OC,7%,-1.6,11,8.2,7,-2.9,0.69
CCOC(=O)c1nn(-c2ccc(Cl)cc2)c(C)cc1=O,-10%,0.1,3.3,-0.3,13,0.3,0.68
CC(=O)N1CCc2ccc(S(=O)(=O)N3CC(C)OC(C)C3)cc21 (stereo not given),25%,2.4,-2.5,0.0,-6,0.3,0.69
CC(=O)N1c2ccc(S(=O)(=O)N3CCCCC3)cc2CC1C(=O)Nc1ccc(C)cc1 (stereo not given),.,4.4,1.5,-1.1,0,0.6,0.68
CC(=O)/C(N=Nc1ccc(C(=O)O)cc1[N+](=O)[O-])=C(\C)O,25%,17,3.5,-5.8,-3,-6.3,0.69
O=C(COC(=O)c1c(F)cccc1F)Nc1ccc2c(c1)OCO2,-7%,0.9,.,1.3,3,.,0.65
CCOc1ccc(Nc2ncnc3c2cnn3-c2ccccc2)cc1,1%,-3.6,0.6,-2.6,4,0.3,0.73
Cc1ccc(CN2CCC(Oc3ccc(C(=O)NCc4ccccn4)cc3)CC2)o1,.,1.2,3.3,0.8,-1,0.4,0.71
O=c1c2c(n3nnnc3n1Cc1ccccc1)-c1ccccc1CC21CCCC1,30%,2.2,-2.7,4.2,4,0.0,0.72
CCCCNC(=O)c1onc(CSc2cccc(OCC)c2)c1C(=O)O,69%,4.1,-2.2,1.6,3,1.8,0.68
Cc1ccc(CSCCNC(=O)CSc2ccccc2)cc1,-4%,0.6,4.2,0.3,-4,-1.0,0.67
Cc1ccc(S(=O)(=O)N2CCC(C(=O)OCC(=O)N3CCCC3=O)CC2)cc1C,-1%,3.4,6.9,1.6,3,1.5,0.69
COc1cc(OC)c2c(c1)C(=O)c1cc(OC)cc(OC)c1C2=O,2%,43*,-0.5,6.0,-5,-0.7,0.69
